Screens deposited in PubChem by several laboratories.
Ecoli rRNA inh – inhibits bacterial ribosomal RNA function over humanized ribosomes | E. coli WT GFP vs humanized-ribosome RFP mutants, fluorescence, 24 h; hits give low values; DMSO median 0, no signal -100 | GFP signal change (wild-type ribosome), % (no concentration beside the values) | 350,000 compounds, 1.6% hits | AID 720706;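 active means significant combined selectivity score with lowered wild-type GFP, culture density cut under 30%, mutant RFP and density less affected; inactive means any of these conditions unmet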; further: one replicate is shown; some compounds called inactive have numbers as strong as hits
MLL AF4-AF9 inh – inhibitors of human MLL-AF4/AF9 interaction | AlphaScreen, biotin-AF4 peptide binding to FLAG-AF9 | 350,000 compounds, 0.47% hits | P42568 | inhibition, % at 10 µM | AID 651704;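 active means every replicate reaching a set inhibition limit, whatever the replicate mean, cut at about 25% in these data; inconclusive means mean inhibition reaches that limit but some replicates miss it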;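 further: 0% = plate neutral control median and 100% = total signal loss; the record names both 10 and 1 µM as test concentration; the first replicate is given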
Vif A3G – HIV-1 Vif–A3G interaction blockers – biochemical, TR-FRET, GST-Vif 1-94, biotin-A3G peptide, dose response retest, primary screen (AID 1117319); TR-FRET GST-Vif / biotin-A3G peptide binding; higher % means a stronger effect; test concentration not given here; strong numbers were not always called active; one-dose inhibition, %; IC50 in µM for titrated hits; 260,000 compounds, 0.57% hits;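 active means above the screen mean plus three standard deviations and confirmed in dose response; inconclusive means results disagree or hit not tested in dose response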;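 further: Vif residues 1-94 fused to GST binding biotinylated APOBEC3G peptide 110-148; 0% = full assay without inhibitor and 100% = GST in place of GST-Vif; retest series ran down from 100 µM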
ALR inh – blocks human ALR sulfhydryl oxidase activity; purified ALR, DTT oxidation, H2O2 HRP-luminol luminescence; inhibition, % (no concentration beside the values); 290,000 compounds, 3.8% hits;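 active means mean and each replicate at 75% or more; inconclusive means only one of the two met; inactive means neither met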;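 further: stock transfer was 7.5 nL into about 7.5 µL; 0% = neutral wells and 100% = wells with inactivated enzyme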
Target sequence (P55789 whole entry, looked up): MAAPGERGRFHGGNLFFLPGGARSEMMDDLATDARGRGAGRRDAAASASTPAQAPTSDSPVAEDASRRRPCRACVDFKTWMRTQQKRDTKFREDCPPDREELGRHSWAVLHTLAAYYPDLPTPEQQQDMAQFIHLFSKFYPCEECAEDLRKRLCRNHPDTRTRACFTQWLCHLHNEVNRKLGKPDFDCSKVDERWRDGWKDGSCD
FGF22 binding – binders of recombinant human FGF22 by thermal shift. 340,000 compounds, 1.5% hits. calls only at 9.99 µM. SYPRO orange fluorescence; percent of sucrose octasulfate shift, DMSO zero. Q9HCT0. AID 651658;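 active means melting point raised past a set limit in the mean and every replicate; inconclusive means no clear call; three in four hits are not shown here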
Target sequence (Q9HCT0 whole entry, looked up): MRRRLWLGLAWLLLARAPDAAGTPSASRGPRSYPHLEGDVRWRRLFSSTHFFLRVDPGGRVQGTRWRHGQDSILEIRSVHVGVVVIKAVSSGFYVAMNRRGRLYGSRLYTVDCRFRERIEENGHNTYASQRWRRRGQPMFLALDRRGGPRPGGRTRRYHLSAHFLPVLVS
Ecoli growth – E. coli growth inhibition | 330,000 compounds, 0.21% hits | Escherichia coli growth, OD600, 23 h; hits give low values | OD600 absorbance (concentration not given with the values) | AID 1053175;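 active means OD600 absorbance below the run mean of sample wells minus 3.6 SD, in any replicate, cut at about 0.56 in these data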;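 further: stock transfer was 300 nL into about 60 µL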
HNF4A DNA FP – change in binding of human HNF4 alpha to DNA | P41235 | HNF4a-FITC DNA binding, fluorescence polarization, 1 h | activity change, % at 10 µM | 360,000 compounds, 0.3% hits; in the data active means activity change above about 30%, passing the limit was not always enough;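 further: controls were the assay level and a saturating level of protein; the project sought stronger binding though the title names inhibitors; some compounds called inactive have numbers as strong as hits; positive values seem to mean higher polarization but the record does not say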
Target sequence (P41235 whole entry, looked up): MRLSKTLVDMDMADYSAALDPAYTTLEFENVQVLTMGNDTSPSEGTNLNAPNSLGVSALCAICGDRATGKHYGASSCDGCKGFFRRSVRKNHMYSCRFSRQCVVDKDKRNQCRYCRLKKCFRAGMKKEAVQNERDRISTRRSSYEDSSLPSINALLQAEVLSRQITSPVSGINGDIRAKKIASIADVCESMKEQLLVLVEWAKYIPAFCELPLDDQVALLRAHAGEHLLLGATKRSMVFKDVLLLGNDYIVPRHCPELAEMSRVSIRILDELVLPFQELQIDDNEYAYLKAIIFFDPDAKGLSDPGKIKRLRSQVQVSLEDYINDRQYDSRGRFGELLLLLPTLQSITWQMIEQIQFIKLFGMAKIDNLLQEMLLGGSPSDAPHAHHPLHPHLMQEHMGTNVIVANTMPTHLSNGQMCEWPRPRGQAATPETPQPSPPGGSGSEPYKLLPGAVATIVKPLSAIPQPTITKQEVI
Ecoli rRNA inh OD600 – recorded beside Ecoli rRNA inh, whose call it bears; OD600 change, %; measured here: OD600 growth;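 optical density of the mix in the first replicate; 0 = DMSO median and -100 = no signal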
Ecoli rRNA inh RFP – also measured in Ecoli rRNA inh; calls as there; RFP signal change, %; measured here: RFP humanized mutant strains;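 first replicate; 0 = DMSO median and -100 = no signal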
The depositor's hits bear a star; i = inactive; u = inconclusive; x = no result given; & = joins results of further samples.

Second line of a record – Ecoli rRNA inh	Ecoli rRNA inh OD600	Ecoli rRNA inh RFP	MLL AF4-AF9 inh	Vif A3G	ALR inh	FGF22 binding	Ecoli growth	HNF4A DNA FP
> COC(=O)c1ccccc1-c1ccc(C=O)o1
→ 12.4	5.8	0.4	-0.7	-12.2%	1.7	x	0.693	-0.8
> O=S1(=O)N=C(Nc2ccc(N3CCOCC3)c(Cl)c2)c2ccccc21
→ -1.1	3.8	-3.5	3.8	12.7%	-14.4	i	0.704	1.5
> CCOc1ccc(N2CC(C(=O)Nc3ncccc3C)CC2=O)cc1 (centres undefined)
→ x	x	x	x	10.2%	-1.3	x	0.702	-4.0
> C=CCn1c(Cc2cccs2)nnc1SCC(=O)Nc1cccc(OC)c1
→ x	x	x	x	-4.1%	-1.4	x	0.635	-0.1
> CCCOc1ccc(N2C(=O)CC(N(CCc3ccc(OC)cc3)C(=O)/C=C/C(=O)O)C2=O)cc1 (centres undefined)
→ 6.4	2.6	0.1	-1.8	x	-12.8	i	0.69	-2.8
> COc1ccc(-c2nnc(SC3CCOC3=O)n2C2CCCCC2)cc1OC (centres undefined)
→ x	x	x	x	9.8%	-21.1	x	0.703	2.7
> COc1ccc(CCNC(=O)C2CCN(c3nccc(C)n3)CC2)cc1
→ 10.7	7.9	0.9	0.7	-1.5%	x	i	0.648	-1.0
> COc1ccc(OCCOCC(O)CN2CCOCC2)cc1 (centres undefined)
→ x	x	x	x	-2.7%	-3.1	x	0.784	-0.4
> O=C1C(Cc2ccccc2)C(c2ccccc2)N1c1ccccc1 (centres undefined)
→ 11.3	13.9	2.9	x	-0.6%	-6.4	x	0.735	0.7
> Cc1cc(C)c2cc(C=O)c(Cl)nc2c1
→ 11.8	11.2	0.1	-2.3	x	14.8	i	0.646	-2.2
> CCCCN([C@H](CO)C(C)C)S(=O)(=O)c1ccccc1Br
→ -35.5	-43.2	-6.7	-1.0	-3.2%	x	i	0.7	4.4
> COC(=O)C(C)n1cnc2c(cnn2-c2ccc(Cl)cc2)c1=O (centres undefined)
→ x	x	x	x	-1.3%	-10.0	x	0.658	2.9
> Cc1cc(C(=O)CN2C(=O)C(=O)N(Cc3ccco3)C2=O)c(C)n1CCc1ccc(F)cc1
→ 4.8	-5.4	-7.0	0.8	-4.0%	-0.8	i	0.682	1.8
> COc1ccc(C(=O)NCC(=O)NCC(=O)OCC(=O)c2ccc(C)cc2)cc1
→ 11.5	8.2	-2.6	-5.1	x	-2.6	i	0.672	-4.2
> C/C(=N\Nc1ccc(S(=O)(=O)Nc2ccc(Cl)cc2)cc1[N+](=O)[O-])c1ccc(N2CCOCC2)cc1
→ x	x	x	x	-3.4%	1.4	x	x	-0.1
> CCc1ccccc1NC(=O)C1C(c2ccccc2)C1(Cl)Cl (centres undefined)
→ x	x	x	x	15.8%	-2.8	x	0.709	1.2
> COc1cc(/C=C2/SC(=S)N(CC(=O)Nc3cccnc3)C2=O)cc(OC)c1OC
→ x	x	x	x	x	-5.4	x	0.73	1.4
> O=C(COC(=O)Cn1cc(C(F)(F)F)ccc1=O)Nc1ccccc1
→ 8.9	8.1	1.1	-3.1	0.0%	-6.9	i	0.651	2.9
> O=C(N[C@@H]1CC[C@H](CC(=O)N2CCCCC2)O[C@H]1CO)c1ccc2c(c1)OCO2
→ -4.9	-14.4	-1.2	-0.9	x	x	i	x	x
> COc1ccc(NC(=O)C2CCCN2C(=O)NCc2ccccc2)cc1OC (centres undefined)
→ x	x	x	x	-0.5%	-5.8	x	0.658	2.9
> CCOC(=O)c1c(NC(=O)CSc2nnnn2-c2ccc3c(c2)OCCO3)sc(C)c1C
→ x	x	x	x	0.1%&-3.0%	-13.5	x	0.717	-0.3
> CCCCn1c(O)c(/C=C/C=C/C=Nc2ccccc2)sc1=S
→ -5.0	8.5	11.5	0.6	x	-15.2	i	0.792	51.2*
> O=C(O)c1ccc(NN=CC2=C(N3CCOCC3)/C(=C/c3ccccc3)CC2)cc1
→ -43.3	-56.4	-6.6	9.4	26.1%	x	i	0.7	41.5*
> COc1ccc(S(=O)(=O)N(C)C[C@H]2OCCCC[C@@H](C)Oc3ccc(NC(=O)Nc4ccc(C(F)(F)F)cc4)cc3C(=O)N([C@@H](C)CO)C[C@H]2C)cc1
→ 2.8	5.8	-2.2	-8.7	x	x	i	x	x
> O=C(OCC(=O)N1CCCCCC1)c1cnc(Cl)c(Cl)c1
→ -1.3	4.4	-0.7	2.0	x	x	i	0.703	-4.4
> COc1ccc(CNC(=S)Nc2ccc3nc(N4CCN(C)CC4)cc(C)c3c2)cc1
→ -8.6	-4.4	11.7	25.7*	1.2%	-16.6	i	0.69	-0.4
> COc1ccc(CN(C)C[C@@H]2OCCCC[C@@H](C)Oc3ccc(NS(=O)(=O)c4ccccc4)cc3C(=O)N([C@@H](C)CO)C[C@@H]2C)cc1
→ 3.5	0.1	0.3	2.6	x	x	i	x	x
> Cc1onc(NC(=O)CSCC(=O)O)c1Br
→ 24.1	15.2	2.5	-2.3	-8.0%	-15.3	i	0.677	0.6
> COc1ccc(NC(=O)N(Cc2ccc(C)cc2)Cc2cccnc2)c(OC)c1
→ 0.5	2.3	1.0	1.6	-1.1%	x	i	0.749	1.4
> Cc1ccc(NS(=O)(=O)c2cccc(C(=O)NCC3CCCO3)c2)cc1 (centres undefined)
→ -9.1	-25.8	7.4	3.2	10.0%	-6.0	i	0.667	-2.7
> CC(C)[C@H](NC(=O)N1CC(=O)Nc2ccccc21)C(=O)N[C@H](C(=O)O)c1ccccc1
→ 3.7	10.6	-3.0	-0.2	x	-6.8	i	0.686	-1.0
> Cc1cc(S(=O)(=O)N2CCCCC2)ccc1OCC(=O)Nc1ccccc1
→ 3.0	18.1	1.8	-6.1	x	-1.7	i	0.665	-2.9
> Cc1ccc(S(=O)(=O)N(CC(=O)Nc2ccc(C)c(Cl)c2)C(=O)N2CCN(C)CC2)cc1
→ 2.6	8.0	-0.1	2.7	5.2%	x	x	0.688	1.4
> O=C(NCC1CC1)C1(C(F)(F)F)CC(CCc2ccccc2)CCCO1 (centres undefined)
→ -22.5	-47.6	11.4	-4.0	x	-11.3	i	0.691	5.7
> Cc1ccc(CNC(=O)COC(=O)c2ccc(S(=O)(=O)N3CCCCCC3)cc2)cc1
→ 6.4	7.2	-1.3	-0.9	-4.2%	x	i	0.654	1.3
> COc1cc2c(cc1OC)C1Cc3ccc(OC)c(OC)c3C[N+]1([O-])CC2 (centres undefined)
→ 16.1	21.6	-5.9	3.5	-1.8%	-30.3	i	0.654	-0.3
> C=CCOc1ccc(/C=C/C(=O)OCC(=O)NCc2ccco2)cc1
→ -2.0	5.2	-3.0	2.7	-7.7%	58.1	i	0.634	1.3
> COCC(C)n1c(COc2ccccc2F)nnc1SCC(=O)Nc1oc(C)c2c(C)n[nH]c(=O)c12 (centres undefined)
→ 0.2	1.1	-1.4	-1.9	9.1%	-5.4	x	0.657	4.5
> C[C@@H]1CN([C@H](C)CO)C(=O)Cc2cc(NC(=O)CCC(F)(F)F)ccc2O[C@H]1CN(C)C(=O)Nc1cccc2ccccc12
→ -2.1	-9.1	0.3	0.1	x	x	i	x	x
> O=S(=O)(/N=C(\Nc1ccc(F)cc1)C(F)(F)F)c1ccccc1
→ x	x	x	x	0.0%	-8.6	x	x	-2.6
> Cc1ccc(Nc2ncnc3sccc23)c(C)c1
→ -25.7	-17.2	-7.5	1.9	11.7%	8.6	i	0.597	-2.1
> Cc1ccc(/C=N/N2C(=O)C3C(C2=O)C2C=CC3C23CC3)o1 (centres undefined)
→ x	x	x	x	u	-11.0	x	x	-3.0
> NC(=NC(=O)c1ccc(OC(F)(F)F)cc1)c1ccc(C(F)(F)F)cn1
→ 8.6	14.3	2.1	-2.0	x	-12.7	i	0.691	6.1
> O=C(O)c1cn(Cc2cccnc2)c(=O)c2ccccc12
→ x	x	x	x	-1.9%	-3.1	x	0.71	x
> Cc1cc(C)nc(SCc2nc3ccccc3n2C)n1
→ x	x	x	x	3.2%	-3.0	x	0.708	-0.1
> O=C(C[C@H]1C/C=C\C[C@@H](Cc2ccc(F)cc2)C(=O)O[C@@H](c2ccccc2)CNC1=O)NCCO
→ -11.0	-5.7	-15.3	0.6	x	1.2	i	x	-1.6
> O=c1[nH]nc(-c2ccc(F)cc2)cc1Cc1cccs1
→ -20.4*	-8.8*	1.8*	x	-7.9%	-5.9	i	0.695	4.2
> C[C@H](CO)N1C[C@H](C)[C@H](CN(C)Cc2ccccn2)Oc2ncc(C#CCC3CCCC3)cc2C1=O
→ 1.7	2.8	-0.3	-17.3	x	x	i	x	x
> S=C1N(c2ccccc2)C(c2ccc(Br)cc2)N2CCCN12 (centres undefined)
→ -13.3	-8.0	-5.2	-2.0	x	-3.5	i	0.669	-0.8
> O=C(CSc1nnc(Cc2ccccc2)o1)NC1CCCCC1
→ -0.3	-8.1	-5.2	-4.2	2.6%	-0.7	i	0.673	2.4

Remaining list, next part:
Second line of a record – Ecoli rRNA inh	Ecoli rRNA inh OD600	Ecoli rRNA inh RFP	MLL AF4-AF9 inh	Vif A3G	ALR inh	FGF22 binding	Ecoli growth	HNF4A DNA FP
> CC(C)N1CC2(CC(c3ccccc3C(F)(F)F)=NO2)CN1C(=O)c1ccco1 (centres undefined)
→ -20.5*	-6.0*	-2.3*	2.4	-0.6%	x	i	x	5.0
> COC(=O)C[C@@H]1C[C@H]2c3cc(NC(=O)Cc4ccncc4)ccc3O[C@H]2[C@H](CO)O1
→ -0.5	4.1	-0.1	0.3	x	x	i	x	x
> O=C(COc1ccc(F)cc1)Nc1nnc(-c2ccncc2)s1
→ x	x	x	x	2.0%	18.1	x	0.63	-0.3
> O=C(NC(=S)Nc1cccc(Cl)c1N1CCOCC1)c1cccs1
→ 2.1	2.3	0.9	-0.9	-10.8%	13.2	i	0.7	-3.5
> O=C(CCc1nnc2ccc(N3CCCCC3)nn12)NCC1CCN(Cc2ccc(F)cc2)CC1
→ 8.9	1.7	0.2	-1.1	0.3%	-2.5	i	0.679	2.1
> O=c1oc(-c2cccc([N+](=O)[O-])c2)nc2ccccc12
→ -2.0	-2.5	-0.1	-0.6	x	42.4	i	0.67	-0.3
> O=C(Nc1ccc(C(F)(F)F)cc1)N[C@H]1CC[C@H](CCNC(=O)c2ccccc2F)O[C@H]1CO
→ -2.5	-10.8	3.0	-2.2	x	x	i	x	x
> O=C(O)/C=C(/c1ccccc1)C(F)(F)F
→ 0.1	2.9	3.2	-13.4	x	x	i	0.672	-2.1
> COC(=O)[C@@]1(Cc2ccc(OC)cc2)[C@@H]2C(=CC(=O)[C@H]2CC(=O)C(=O)N(C)C)CN1C(=O)c1ccccc1
→ 1.4	4.2	-0.5	2.0	30.0%	6.5	i	0.789	x
> COc1ccc(Br)cc1CN1CCN(C(=O)c2ccc(OC)c(OC)c2)CC1
→ -9.3	-10.5	-1.0	2.8	8.3%	-1.7	x	0.698	1.2
> COc1cc(/C=N/Nc2ccccc2C(F)(F)F)ccc1O
→ 2.5	6.2	-1.7	10.5	2.3%	12.4	i	x	-4.9
> Cn1cnc(S(=O)(=O)Nc2ccccc2N2CCOCC2)c1
→ 10.7	-2.0	1.2	-0.7	-5.7%	-10.3	i	0.648	3.4
> O=C(NCCC1CCCCN1S(=O)(=O)c1ccccc1)C(=O)NCc1ccncc1 (centres undefined)
→ 3.8	6.2	-0.8	1.1	5.3%	-4.1	i	0.645	1.4

An excerpt; rates above refer to the full screens.
